Source: PubChem BioAssay
Six1-Eya2 blk = inhibitors of human Six1/Eya2 interaction. AlphaScreen GST-Six1/His-Eya2 binding, biochemical; active compounds read low; control for the full effect not named in the record. actives 0.56% (n = 360,000). activity change, % (concentration not given with the values). Q15475+O00167; in the data active = activity change below about -65%; inconclusive = about -30% to -65%; inactive = above about -30%; note: % is set by controls: 0 for no effect and ±100 for the full control effect
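Six1/Eya2 binding was read as AlphaScreen signal after compounds were pinned into GST-Six1 plus His-tagged Eya2 (5X stock 250/500 nM) in pH 8.0 Tris/NaCl/TCEP buffer, beads added, then incubated 1 h, 37 C, dark.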
D2 PAM = positive allosteric modulators of human D2 dopamine receptor; P14416; actives 0.23% (n = 360,000); potentiation, % (concentration not given with the values); DiscoveRx D2 beta-arrestin cells, luminescence, 90 min; 100% = 57 uM dopamine signal; AID 624464; active = potentiation of 50% or more; inconclusive = 30% to 50%; inactive = 30% or less;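 note: compound concentration not given in the record; tested on top of an EC20 dose of dopamine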
Target sequence (P14416 whole entry, looked up): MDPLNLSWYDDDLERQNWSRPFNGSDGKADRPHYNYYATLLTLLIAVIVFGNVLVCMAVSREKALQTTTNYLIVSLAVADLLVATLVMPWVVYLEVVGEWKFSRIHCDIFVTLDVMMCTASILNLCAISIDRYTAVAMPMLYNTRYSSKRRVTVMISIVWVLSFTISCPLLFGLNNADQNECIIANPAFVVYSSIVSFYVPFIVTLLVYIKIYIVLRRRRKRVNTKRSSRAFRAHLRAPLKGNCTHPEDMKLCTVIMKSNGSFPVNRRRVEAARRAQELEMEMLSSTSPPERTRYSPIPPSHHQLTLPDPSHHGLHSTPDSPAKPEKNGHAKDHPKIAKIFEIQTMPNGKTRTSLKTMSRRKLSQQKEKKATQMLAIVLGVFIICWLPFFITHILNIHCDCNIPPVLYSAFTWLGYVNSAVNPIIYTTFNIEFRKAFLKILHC
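PathHunter D2 cells, attached overnight at 37 deg C, received compound in DMSO plus dopamine at EC20 (50 nM final) for 90 min at 37 deg C. Beta-arrestin recruitment was read as luminescence after 1 h with detection reagent at ambient temperature.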
gsp antag = gsp mutant antagonism. Potency, µM (titrated, usually from 76.9 µM), inactives show top-dose activity change, negative = inhibition, most hits filed as inhibitors. gsp-mutant cells, cAMP HTRF, 30 min; control for the full effect not named in the record. AID 624288. actives 0.4% (n = 340,000); active = falling curve of any shape with a large fitted effect; inconclusive = falling curve, mostly with a smaller effect; inactive = flat or rising curve; cell line not stated here;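 note: intracellular cAMP measured with PDE inhibitor Ro 20-1724 present during compound exposure; potency is the fitted concentration of half-maximal effect; % is set by controls: 0 for no effect and ±100 for the full control effect; nearly all actives have a fitted effect of over 65% in size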
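HTRF cAMP read-out (cAMP-d2 plus anti-cAMP antibody-K in lysis buffer, 30 min RT). Before lysis, cells are exposed to compounds with […] for 30 min at 37C in DPBS containing Ca/Mg, BSA and Tween 20.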
gsp agonist = activates gsp, the McCune-Albright syndrome mutation | Potency, µM (highest dose often 76.9 µM), inactives show at the highest dose activation (cAMP increase), usual class: activators | AID 624287 | actives 0.13% (n = 340,000) | gsp mutant cells, cAMP HTRF, 30 min; control for the full effect not named in the record; active = well fitted activation curve with a large enough effect; inconclusive = small, poorly fitted or top-dose-only effect, or another doubt; inactive = no such curve, though single readings can be large or run the other way; cell line not stated here;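 note: phosphodiesterase inhibitor Ro 20-1724 added with compounds to block cAMP breakdown; potency is the fitted concentration of half-maximal effect; nearly all actives have a fitted effect of over 60% in size; about a fifth of the inactives were tested at one dose only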
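Cells stably selected in G418 were plated at 2000/well, grown 16-24 hr, then given compounds in DMSO with the PDE inhibitor […] (300 uM solution added) for 30 min at 37C; cAMP was read by HTRF.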
D2 ag = activates the human D2 dopamine receptor; P14416; DiscoveRx PathHunter D2 beta-arrestin, luminescence, 90 min; 100% = 57 uM dopamine signal; activation, % (no concentration beside the values); actives 0.084% (n = 360,000); in the data active = activation above about 40%; inconclusive = about 15% to 40%; inactive = below about 15%; note: compound concentration not given in the record; the text of the record calls up to 30% inactive
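Agonist mode: compounds alone added to overnight-plated D2 PathHunter cells for 90 min at 37 C, with 57 uM final dopamine (EC100) defining full response. Beta-arrestin recruitment detected by chemiluminescent reagent, read after 1 h at ambient temperature.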
CtBP-E1A inh = inhibitors of CtBP/E1A interaction; activity change, % (no concentration beside the values); actives 0.49% (n = 340,000); AlphaScreen GST-E1A/His-CtBP binding, 1536-well; active compounds read low; control for the full effect not named in the record; in the data active means activity change below about -65%; inconclusive means about -30% to -65%; inactive means above about -30%; note: % is set by controls: 0 for no effect and ±100 for the full control effect
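GST-E1A and His-tagged CtBP (125 nM each as 5X stock) were preincubated with pin-transferred compound for 2 h at 37 °C in the dark, then glutathione donor and nickel acceptor beads were added for 1 h before AlphaScreen reading.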
* marks the source's active call; other numbers are inactive results; ? = inconclusive; . = not tested or not shown; [ ] = another dose, or the depositor's remark. Not a hit list; 1.4% or so of the library scored in one or more.

# | compound | gsp antag | Six1-Eya2 blk | D2 PAM
1 | CCN(Cc1ccncc1)C(=S)Nc1ccccc1 | 6% | 5 | -1
2 | COCCNc1oc(/C=C/c2cccc(OC)c2)nc1S(=O)(=O)c1ccccc1 | . | 19 | -11
3 | O=C(C1CCN(S(=O)(=O)c2ccc(Br)s2)CC1)N1CCN(c2ccccc2)CC1 | -15% | -6 | -4
4 | O=c1oc(/C=C/c2ccccc2)nc2sc3c(c12)CCC3 | -4% | -1 | 0
5 | O=C(Nc1ccc(N2C(=O)C3CCCCC3C2=O)cc1Cl)c1cccs1 (configuration not stated) | 0% | -2 | -4
6 | COC(=O)c1ccc(NC(C)C(=O)OC)c([N+](=O)[O-])c1 (configuration not stated) | -6% | -5 | 3
7 | CCCCN(C(=O)COC(=O)c1nc2nc(C)cc(C)n2n1)C1CCS(=O)(=O)C1 (configuration not stated) | 12% | 10 | -12
8 | O=C(Nc1ccc(F)cc1)Nn1cnnc1 | 14% | 1 | -11

# | D2 ag | CtBP-E1A inh | gsp agonist
1 | -0.9 | 8 | -8%[15.4 µM]
2 | -3.9 | 2 | 7%
3 | 4.4 | -7 | -2%
4 | -2.9 | 1 | -1%
5 | 1.8 | 7 | ?
6 | 1.2 | -1 | 6%
7 | -4.7 | -11 | -1%
8 | -2.5 | 2 | -51%[inhibitor]

New compounds follow.
# | compound | gsp antag | Six1-Eya2 blk | D2 PAM
9 | COC(=O)C[C@H](NC(=O)Cn1cnc2c(OCc3ccccc3)ncnc21)C(=O)OC | 3% | 7 | -2
10 | O=C(c1cccc(-n2cccc2)c1)N1CCN(S(=O)(=O)c2ccccc2)CC1 | -14% | ? | 4
11 | CC1(C(=O)NS(=O)(=O)c2cccc(Cl)c2)CCN1C(=O)c1cccc2ccccc12 (configuration not stated) | . | 11 | 4
12 | CN(CC1COc2ccccc2O1)C(=S)Nc1ccccc1F (configuration not stated) | 17% | 5 | -6
13 | NC(=O)c1ccsc1NC(=O)CCS(=O)(=O)c1ccc(Cl)cc1 | 0% | 1 | -10
14 | COc1cccc(CN2CCN(C(=O)c3cccc4ccccc34)CC2)c1 | -9% | 1 | -2
15 | CC(C)(C)OC(=O)N/N=C/c1ccc(Br)cc1 | -1% | -6 | -11
16 | CCn1nnc(-c2ccccc2NC(=O)c2cc(OC)cc(OC)c2)n1 | -15% | 2 | -6

# | D2 ag | CtBP-E1A inh | gsp agonist
9 | -3.4 | 3 | .
10 | -1.7 | -26 | 7%[15.4 µM]
11 | 12 | 5 | .
12 | 2.8 | 7 | -11%
13 | -3.7 | 0 | -3%
14 | -3.5 | -2 | 3%
15 | -1.3 | 5 | -4%[15.4 µM]
16 | -1.5 | 10 | -28%

Record cards, as listed above.
CCN(Cc1ccncc1)C(=S)Nc1ccccc1 across the screens: gsp antag = 6%; Six1-Eya2 blk = 5; D2 PAM = -1; D2 ag = -0.9; CtBP-E1A inh = 8; gsp agonist = -8%[15.4 µM]
O=C(c1cccc(-n2cccc2)c1)N1CCN(S(=O)(=O)c2ccccc2)CC1 across the screens: gsp antag = -14%; Six1-Eya2 blk = ?; D2 PAM = 4; D2 ag = -1.7; CtBP-E1A inh = -26; gsp agonist = 7%[15.4 µM]
COCCNc1oc(/C=C/c2cccc(OC)c2)nc1S(=O)(=O)c1ccccc1 across the screens: gsp antag = .; Six1-Eya2 blk = 19; D2 PAM = -11; D2 ag = -3.9; CtBP-E1A inh = 2; gsp agonist = 7%

The list goes on:
# | compound | gsp antag | Six1-Eya2 blk | D2 PAM
17 | O=C(NCCCN1CCCC1=O)c1nnc(Cc2c(F)cccc2Cl)o1 | 8% | 3 | -7
18 | CCCCc1ccc(-c2nc(-c3ccncc3)no2)cc1 | -5% | -14 | -10
19 | CC(C)NC(=O)CCS(=O)(=O)c1cccc2nonc12 | 9% | 0 | -17
20 | CC(C)(C)C(=O)Cn1c(=O)n(-c2ccc(F)cc2F)c(=O)c2sccc21 | -13% | 9 | -12
21 | O=C(NC1=NCCS1)C1CCCCC1 | 16% | 4 | -30
22 | Cc1ccccc1NC(=O)CSc1nc2n(n1)CCCCC2 | -1% | 1 | -9
23 | O=C(CCC(=O)c1ccc(F)cc1)NC1CCCN(Cc2ccccc2F)C1 (configuration not stated) | 4% | 6 | -48
24 | COc1cc(C)c(Br)cc1S(=O)(=O)N1CCCC1 | -8%[15.4 µM] | 6 | -7

# | D2 ag | CtBP-E1A inh | gsp agonist
17 | -2.2 | 4 | 7%
18 | -3.6 | 10 | -11%
19 | -3.4 | 2 | -15%
20 | -1.7 | . | -19%
21 | -1.8 | 1 | -1%[15.4 µM]
22 | -4.5 | 2 | 0%
23 | -5.5 | . | -51%[inhibitor]
24 | -3.8 | 15 | -36%[inhibitor]

(list continues)
# | compound | gsp antag | Six1-Eya2 blk | D2 PAM
25 | CCN(CC)c1ccc(/C=N/Nc2nc3ccccc3[nH]2)c(O)c1 | 1% | 0 | ?
26 | CCOC(=O)C1=C(COC(=O)c2cccnc2SC)NC(=O)NC1C (configuration not stated) | 11% | -2 | 3
27 | COc1ccc(N2C(=O)CC(NCc3ccc(F)cc3)C2=O)cc1 (configuration not stated) | 4% | 6 | 1
28 | O=C(NCC(=O)N1CCN(Cc2ccccc2)CC1)c1ccc(Br)o1 | 6% | 0 | -14
29 | CC1(C)C2CCC1(C)C(NC(=O)/C=C/c1ccccc1)C2 (configuration not stated) | -21% | 23 | -24
30 | CC1(C)CC(=O)C(C=NCCO)=C(O)C1 | 5% | -4 | -6
31 | Cc1ccc(-n2cc(-c3ccccc3)c3c(N4CCN(C)CC4)ncnc32)cc1 | -9% | -18 | -12
32 | Cn1c(SCC(=O)Nc2cc(S(=O)(=O)N3CCOCC3)ccc2N2CCOCC2)nnc1-c1ccncc1 | 3% | 4 | -4

# | D2 ag | CtBP-E1A inh | gsp agonist
25 | 8.8 | ? | -11%
26 | 0.1 | 7 | -2%
27 | -1.3 | 4 | -50%[inhibitor]
28 | -1.7 | 3 | -35%
29 | 3.2 | -18 | -5%[15.4 µM]
30 | -1.9 | -6 | ?
31 | -3.9 | -21 | -24%[15.4 µM]
32 | -4.1 | 7 | 18%[15.4 µM]

Additional compounds
# | compound | gsp antag | Six1-Eya2 blk | D2 PAM
33 | COc1cc2c(cc1OC)C1=CC(=O)C(=O)N1C(C)(C)C2 | 21% | -8 | -4
34 | O=C(/C=C/c1ccccc1)OCc1cncs1 | 7% | 1 | 0
35 | O=C1C=C(NCc2ccccc2)CCC1 | 6% | 6 | -10
36 | O=[N+]([O-])c1ccccc1/C=C/C=N/n1c(-c2cc(-c3ccccc3)n[nH]2)n[nH]c1=S | -29% | ? | -17
37 | Cc1cccc(-n2cccc2)c1C#N | -4% | -6 | -7
38 | CCCn1nnc(NC(=O)c2ccccc2Cl)n1 | 3% | 1 | 4
39 | COCCCNC(=O)CSc1nc2ccccc2c(=O)n1CCc1ccc(S(N)(=O)=O)cc1 | -14% | -3 | 14
40 | Cc1ccc(S(=O)(=O)Nc2ccc(C(=O)N3CCOCC3)cc2)cc1 | -8% | 11 | 0

# | D2 ag | CtBP-E1A inh | gsp agonist
33 | -6.8 | -2 | -8%[15.4 µM]
34 | 5.2 | 7 | 2%
35 | -2.8 | 0 | 12%
36 | -4.1 | -1 | -2%[15.4 µM]
37 | 1.2 | 5 | 20%
38 | -0.7 | 1 | 14%
39 | -2.5 | -16 | 34%
40 | -3.6 | 19 | 21%[15.4 µM]

Further structures follow.
# | compound | gsp antag | Six1-Eya2 blk | D2 PAM
41 | Cc1ccc2c(c1)N(C(=O)CCC(=O)N1CCN(c3ccccn3)CC1)CCO2 | -7% | 0 | -7
42 | CC1Cc2cc(S(=O)(=O)CCC(=O)N3CCN(c4ccccc4)CC3)ccc2N1C(=O)C1CC1 (configuration not stated) | -37% | -9 | -8
43 | CCc1nccn1CCC(=O)NC1CC(C)(C)Cc2c1cnn2-c1ccc(OC)cc1 (configuration not stated) | -11% | 5 | -2
44 | Cc1ccc(OCC(=O)NNC(=O)[C@@H]2CCCC[C@@H]2C(=O)O)c(Br)c1 | 10% | 1 | -3
45 | CCc1ccc(C(=O)OCC(=O)N(CCOC)c2c(N)n(Cc3ccccc3)c(=O)[nH]c2=O)cc1 | 16% | 2 | -2
46 | CCOC(=O)C1=CCC2c3c(c4ccccc4n3C)C(=O)C1N2C(=O)OC(C)(C)C (configuration not stated) | -10% | 12 | -3
47 | O=S1(=O)N=C(Nc2ccc(N3CCOCC3)cc2)c2ccccc21 | -7% | -2 | -11
48 | CCOc1cc(/C=C2\N=C(C)OC2=O)cc(Cl)c1OCC(=O)OC | 0% | -1 | -7

# | D2 ag | CtBP-E1A inh | gsp agonist
41 | 1.5 | 1 | 5%
42 | -2.1 | -13 | ?
43 | -2.9 | 1 | -26%
44 | -9.2 | 2 | 0%
45 | -3.1 | 5 | -9%
46 | 8.6 | -24 | -5%
47 | -0.7 | 8 | -9%
48 | -3.0 | 4 | -17%[15.4 µM]

New compounds follow:
# | compound | gsp antag | Six1-Eya2 blk | D2 PAM
49 | CC(=O)Nc1cccc(NC(=O)c2cc(-c3ccccn3)nc3ccc(Cl)cc23)c1 | -13% | 0 | -3
50 | O=S(=O)(c1cc(Cl)ccc1Cl)n1cccn1 | . | 36 | -6
51 | CCN(CC)S(=O)(=O)c1ccc(-c2nnc(SCC(=O)Nc3cc(OC)cc(OC)c3)o2)cc1 | 3% | 8 | 5
52 | CSCCC1NC2(C(=O)Nc3c2ccc(Cl)c3C)[C@@H]2C(=O)N(C3CCCC3)C(=O)[C@H]12 (some centres not stated) | -4% | -16 | -7
53 | O=C(NCCc1ccccc1Cl)c1ccc2nc3ccccc3c(=O)n2c1 | -16% | -9 | -9
54 | CC1CCCC(C)N1C(=S)NCc1ccco1 (configuration not stated) | 3% | -7 | -6
55 | COCCn1c(SCC(=O)NCc2cccs2)nnc1-c1ccc(OC)cc1 | -1% | 3 | 0
56 | O=C(Nc1ccc([N+](=O)[O-])cc1Cl)c1cccc([N+](=O)[O-])c1 | . | 2 | 3

# | D2 ag | CtBP-E1A inh | gsp agonist
49 | 4.1 | -1 | 9%[15.4 µM]
50 | -0.2 | 0 | -11%[15.4 µM]
51 | 2.8 | 3 | 3%
52 | -2.9 | -7 | 18%
53 | -1.3 | ? | 15%
54 | 1.1 | -23 | -9%[15.4 µM]
55 | 0.6 | 10 | 5%
56 | 1.0 | 5 | -27%

Next entries:
# | compound | gsp antag | Six1-Eya2 blk | D2 PAM
57 | Cc1onc(-c2ccccc2Cl)c1C(=O)OCN1C(=O)c2ccccc2C1=O | -12% | -3 | 0
58 | O=C(CCN1CCc2ccccc2C1)Nc1ccccc1 | 9% | 2 | -36
59 | C#CCNC(=O)C1=C[C@@H](c2ccc(Br)cc2)[C@H](CCCO)[C@@H](OCC)O1 | -10% | 7 | 5
60 | Cc1ccc([C@H]2N[C@]3(CCCN(CC4CCCCC4)C3=O)[C@H]3C(=O)N(Cc4ccccc4)C(=O)[C@@H]23)cc1 | . | -1 | -2

# | D2 ag | CtBP-E1A inh | gsp agonist
57 | -1.5 | 2 | 0%
58 | 0.2 | -3 | -9%
59 | -6.9 | 0 | -54%[inhibitor]
60 | -10.0 | 3 | 0%
